# CSC inhib: cancer stem cell inhibition; 300,000 compounds, 1.1% hits; inhibition, % at 7.5 µM; AID 2717; cancer stem cell-like cells viability, luminescence;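 active means mean at 75% or more and at least half the replicates too; inconclusive means mean and replicates disagree; tested in HMLE shEcad cells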;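 further: 0% = median of negative and 100% = median of positive control wells; the first replicate is given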
# Env fusion inh: blocks HIV Env-driven cell-cell fusion. inhibition, % at 12.3 µM. HeLa-JRFL Env/CEM21 cell fusion, luciferase. AID 651610. 360,000 compounds, 1.1% hits;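 active means mean replicate inhibition score of at least 50 and every replicate individually at or above 50; inconclusive means only one of the two criteria met; inactive means mean below 50 and not all replicates reaching 50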;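 further: 0% = plate neutral controls and 100% = maraviroc near 300 nM; one replicate is shown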
# PABP polyA inh: PABP-poly(A) binding inhibition. inhibition, % at 35 µM. P11940. AID 2014. 290,000 compounds, 1% hits. PABP-poly(A) RNA binding, fluorescence polarization;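 active means 50% or more with normal probe brightness, or confirmed in later tests; inconclusive means above 50% with abnormal brightness, or retests that disagree; inactive means below 50% or failed in later tests; about a fifth of its hits are not listed in these tables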;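 further: calls also rest on retests at 20 µM and on dose response follow-up; controls were probe without protein and protein plus probe with vehicle; some compounds called inactive have numbers as strong as hits; many hits fall short of the cut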
# Target sequence (P11940 whole entry, looked up): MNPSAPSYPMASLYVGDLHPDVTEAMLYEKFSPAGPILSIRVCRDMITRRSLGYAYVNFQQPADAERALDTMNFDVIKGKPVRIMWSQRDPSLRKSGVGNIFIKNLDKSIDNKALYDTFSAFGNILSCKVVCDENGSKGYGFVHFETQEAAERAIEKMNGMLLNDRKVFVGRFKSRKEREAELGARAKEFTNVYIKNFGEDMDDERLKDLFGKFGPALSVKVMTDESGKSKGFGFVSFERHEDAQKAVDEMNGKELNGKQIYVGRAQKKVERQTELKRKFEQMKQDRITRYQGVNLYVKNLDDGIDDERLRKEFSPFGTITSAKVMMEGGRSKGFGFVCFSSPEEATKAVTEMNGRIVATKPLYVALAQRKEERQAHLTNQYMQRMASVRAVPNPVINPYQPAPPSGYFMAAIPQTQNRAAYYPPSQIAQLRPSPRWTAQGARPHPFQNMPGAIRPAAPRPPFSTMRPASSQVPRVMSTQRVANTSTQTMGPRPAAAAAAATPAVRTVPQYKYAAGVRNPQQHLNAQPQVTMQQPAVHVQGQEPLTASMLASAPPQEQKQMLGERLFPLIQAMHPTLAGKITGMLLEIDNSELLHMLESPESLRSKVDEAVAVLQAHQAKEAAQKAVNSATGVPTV
# Rce1 inh: blocks yeast Ras-converting enzyme; AID 2563; yeast membranes, quenched prenylated peptide cleavage fluorescence; Q03530; 290,000 compounds, 0.27% hits; calls only;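 active means fall in fluorescence gain of 50% or more versus controls, with final raw signal at or below 3038400; inconclusive means same 50% fall but final raw signal above 3038400; inactive means fall in fluorescence gain under 50%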;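 further: plate controls were neutral control wells for no effect and wells lacking membranes for full effect; tested at 10 µM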
# eIF4H inh: inhibitors of RNA binding by human eIF4H; inhibition, % at 35 µM; 290,000 compounds, 0.94% hits; Q15056; eIF4H fluorescence polarization binding assay; AID 2012;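 active means 50% or more with normal probe brightness, or confirmed in later tests; inconclusive means above 50% with abnormal brightness, or retests that disagree; inactive means below 50% or failed in later tests; about a fifth of its hits are not listed in these tables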;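 further: calls also rest on retests at 20 µM and on dose response follow-up; 0% = protein and probe with vehicle and 100% = probe without protein; strong numbers were not always called active; many hits fall short of the cut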
# MT1-MMP act inh: inhibitors of human MT1-MMP activation; P50281; 360,000 compounds, 0.061% hits; GFP/RFP ratio change, % at 20 µM; HT1080 RFP-PRO-GFP cells, GFP/RFP ratio fluorescence, overnight; percent of plate control window, DMSO zero;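 active means GFP/RFP ratio change of at least 30% with cell ATP level not reduced by more than half and red fluorescence within 50% of control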; further: strong numbers were not always called active
#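 Assay system: RFP-PRO-GFP reporter HT1080 cells; read-out basis: GFP/RFP fluorescence ratio; benchmarks: DMSO wells and RFP-L50D-GFP cells; doses: 20 µM single dose, 1% DMSO; schedule: overnight cell settling, then overnight compound exposure, 37 °C, 5% CO2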
# UUG fidelity: alters start codon recognition fidelity in yeast; S. cerevisiae UUG-firefly luciferase reporter, luminescence/redox ratio; AID 602363; activity score, % at 18.7 µM; 350,000 compounds, 0.13% hits;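 active means replicate mean at a twofold rise or more, about +100% in these data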;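 further: firefly luciferase made from a UUG start codon reports start codon fidelity; reporter light over untreated wells divided by growth signal over untreated wells; some hits fall short of that in this replicate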
# eIF4H inh retest: second read-out of eIF4H inh, no call of its own (marks repeat the call); inhibition, %; compound at 20 µM; confirmation average;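 mean of two retest wells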
# PABP polyA inh retest: second read-out of PABP polyA inh, no call of its own (marks repeat the call); inhibition, %; compound at 20 µM; confirmation repeats;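 mean of two retest wells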
# MT1-MMP act inh RFP: second read-out of MT1-MMP act inh, no call of its own (marks repeat the call); RFP signal change, %; measured here: RFP expression control read;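 0 = vehicle wells; hits needed this value within 50% of zero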
# * marks the source's active call; other numbers are inactive results; i = inactive; ? = inconclusive; / = no result given; & = joins results of further samples; [ ] = another dose, or the depositor's remark.
SMILES,CSC inhib,Env fusion inh,PABP polyA inh,Rce1 inh,eIF4H inh,MT1-MMP act inh,MT1-MMP act inh RFP,UUG fidelity,others
COc1cccc(/C=C/C(=O)OCC(=O)NCCNC(=O)COC(=O)/C=C/c2cccc(OC)c2)c1,/,-11,/,/,/,8,3,-18,
CCOC(=O)N1CCN(C(=O)c2ccc(NS(=O)(=O)c3ccc(F)cc3)cc2)CC1,-11,13,8,i,3,3,-3,/,
N#CNC1=NCN(Cc2ccccc2)CN1,4,-39,4,i,5,2,5,/,
C/C=C(\C)C(=O)NCCN1C2=NC[C@@H](C)N2C[C@H]1Cc1ccc(O)cc1,-8,-22,-3,i,1,0,2,8,
CCOC(=O)Cc1csc(NC(=O)CCNS(=O)(=O)c2ccc3c(c2)CCC(=O)N3)n1,/,-12,-6,i,1,1,0,-19,
CCOC(=O)c1oc2cc(O)cc(C)c2c(=O)c1-c1cscn1,-2,/,5,i,5,-3,-1,-2,
COc1ccc(N2CCN(S(=O)(=O)c3ccc(-n4cnnn4)c(C)c3)CC2)cc1,-6,11,0,i,7,-2,0,/,
CCCCOC(=O)c1[nH]c2c(c1C)C(=O)CC(c1cc(OC)c(OC)c(OC)c1)C2 (stereo not drawn),25,64*,-20,i,-7,-1,-33,-10,
CC(OC(=O)C1CCN(S(=O)(=O)c2ccccc2)CC1)C(=O)Nc1ncc(Cl)cc1Cl (stereo not drawn),-10,-21,-6,i,-4,1,4,-7,
Cc1[nH]c2ccccc2c1/C=N/NC(=O)Nc1ccccc1,2,-33,-3,i,-3,5,4,/,
CCC(CO)Oc1cc(NC(=O)c2ccccc2C)c2ncn(C(C)C)c2c1 (stereo not drawn),-13,11,/,/,/,-2,1,-4&-18,
CCCC(=O)N(C)c1nnc(-c2ccc(OC)cc2)s1,-6,-77,5,i,-4,6,2,-25,
Cc1cc(C)n(-c2nnc(Cl)c3ccccc23)n1,-10,-1,-8,i,-10,-4,-2,/,
CC1(C)CCCN(Cc2c(O)ccc3c(=O)c(-c4nc5ccccc5s4)c(N)oc23)C1,?,-7,-8,i,-3,2,-5,/,
O=C(O)c1ccc(-c2noc(-c3ccccc3F)n2)cc1,6,-171,/,i,/,-1,3,-72,
CC(=O)c1ccc(NC(=O)C(C)NCc2ccccc2Cl)cc1 (stereo not drawn),-7,15,-7,i,21,5,6,-16,
O=C(Nc1ccc(S(=O)(=O)N2CCCCC2)cc1)c1ccccc1Cl,-3,-75,-12,i,-8,3,-4,-16,
COc1ccc(-c2nnc(SCC(=O)NCCc3ccccc3)o2)cc1,-12,/,-4,i,-10,3,6,-16,
CCOC(=O)N1CCN(C(=O)CCNS(=O)(=O)c2cc(Br)cnc2N)CC1,-6,-2,-3,/,6,1,5,/,
COc1cccc(C(=O)N2N=C(c3cccc(OC)c3)CC2(O)C(F)(F)F)c1 (stereo not drawn),-1,11,-3,i,-7,4,4,-1,
CCOc1ccc(C(CCc2ccccc2)NC(=O)c2ccccc2F)cc1OCC (stereo not drawn),15,/,5,i,-5,-7,-11,4,
CC(=O)c1c(N2CCOCC2)nc2ccc(Cl)cc2c1-c1ccccc1,-6,19,-13,i,-3,-1,-12,/,
COc1ccc(Nc2cc(Cl)ccc2C(=O)O)cn1,6,3,72*,i,97*,-4,5,19,eIF4H inh retest=74*;PABP polyA inh retest=106*
Cc1nc2ccccn2c1/C(O)=C1\C(=O)C(=O)N(CCN2CCOCC2)C1c1ccncc1 (stereo not drawn),-2,/,10,i,12,3,6,/,
O=C(CN1CCCN(S(=O)(=O)c2ccc(F)cc2)CC1)Nc1c(Cl)cccc1Cl,-17,-43,0,/,-4,-2,-3,-31,

# Following part:
SMILES,CSC inhib,Env fusion inh,PABP polyA inh,Rce1 inh,eIF4H inh,MT1-MMP act inh,MT1-MMP act inh RFP,UUG fidelity,others
COc1ccc(CC(=O)NC(c2ccccc2)c2ccccc2)cc1S(=O)(=O)N1CCOCC1,-18,/,-5,i,-3,4,-8,-15,
O=C(NCCCn1ccnc1)C(=O)NCC(c1ccco1)N1CCN(c2ccccc2)CC1 (stereo not drawn),-10,4,-10,i,-11,-3,-4,-11,
Cc1nn(CC(=O)N(C)C2CCS(=O)(=O)C2)c(C)c1S(=O)(=O)N(C)C (stereo not drawn),/,5,/,/,/,0,1,-21,
CCn1c(SCC(=O)Nc2cccc(OC)c2)nc2ccccc2c1=O,7,-12,-11,i,-6,-1,-3,-12,
O=C(NCCc1ccccc1)c1ccccc1SCC(=O)N1CCCC1,-1,-2,49,i,37,-1,2,-13,
COC(=O)c1ccc(Cn2c(O)c(N=O)c3ccccc32)o1,0,-39,1,i,8,0,0,-15,
O=C(CSc1ccccc1F)NNC(=O)c1cncc(Br)c1,-5,/,/,/,/,0,-6,-15,
O=C(CN1CCN(S(=O)(=O)c2ccc(Br)cc2)CC1)N/N=C/c1ccc(Cl)c([N+](=O)[O-])c1,59,-13,9,i,0,7,-1,/,
COc1ccc(C(C(=O)NC2CCCCC2)N(CC2CCCO2)C(=O)C2COc3ccccc3O2)cc1OC (stereo not drawn),-4,-129,10,i,-14,-1,4,0,
Clc1ccccc1Cn1nnc(-c2ccccc2)n1,-9,-2,-9,i,-3,-3,0,/,
COc1ccc(COCC(O)CN2CCC(CN3C(=O)c4cccc5cccc(c45)C3=O)CC2)cc1OC (stereo not drawn),-3,-14,-5,i,-1,-4,-12,/,
COc1ccc(-n2c(=O)n(Cc3ccccc3)c(=O)c3[nH]cnc32)cc1,-2,0,7,i,-2,4,5,/,
Cc1ccc(S(=O)(=O)NNC(=O)Nc2cccc3ccccc23)cc1,-6,10,2,i,-1,0,-2,7,
CCN(CC)C(=O)CC(c1ccc2c(c1)OCO2)c1c(OC)cc(OC)c2c(-c3ccccc3)cc(=O)oc12 (stereo not drawn),-4,-7,14,i,2,3,-1,-9,
CCCC(=O)NC(=S)Nc1ccccc1F,-2,/,-6,i,2,4,4,-18,
CCOC(=O)c1ccccc1NC(=O)COC(=O)Cc1ccccc1F,/,-12,/,/,/,-4,-1,-11,
O=C(Nc1ccc(F)cc1F)c1cc(Cl)sc1Cl,-14,-25,-4,i,-16,2,2,-9,
CCOC(=O)c1cc(NC(=O)Nc2nccs2)c(C)nc1C,15,-6,-1,i,6,4,4,/,
O=C(NC1CCCCC1)C(c1ccccc1F)N(C(=O)c1csnn1)C1CCCC1 (stereo not drawn),4,?,-3,i,-1,-3,-2,-13,
CC(=O)Nc1sc(-c2ccc(Cl)cc2)nc1-c1ccccc1,18,-92,0,i,12,-2,0,/,
CC1CCN(CCCNC(=O)CN2C(=O)CSc3ccc(S(=O)(=O)N4CCCCC4)cc32)CC1,-6,-5,/,i,/,4,5,-1,
COc1ccc2cc(CCNC(=O)CC(C)(C)C)c(=O)[nH]c2c1,-6,-18,-10,i,-10,0,2,-8,
CCCCCc1c(C)nc(SCC(=O)O)[nH]c1=O,-15,/,-2,i,-3,2,5,/,
COc1ccc2c(c1OC)C(=O)OC2Nc1nc(-c2cc3cc([N+](=O)[O-])ccc3oc2=O)cs1 (stereo not drawn),-14,/,19,i,12,5,0,2,
CC1CN(C(=O)CCC(=O)NCc2ccccc2Cl)c2ccccc2S1 (stereo not drawn),/,-37,2,i,4,-1,0,-3,

# Continuation:
SMILES,CSC inhib,Env fusion inh,PABP polyA inh,Rce1 inh,eIF4H inh,MT1-MMP act inh,MT1-MMP act inh RFP,UUG fidelity,others
Cc1ccc(/C=N/N=C/c2ccc(C)s2)s1,11,-122,-2,i,-3,1,-2,/,
O=C(NCc1ccccc1F)Nc1nnc([C@H]2C[C@H](O)[C@@H](CO)O2)s1,/,-20,/,/,/,4,9,-19,
O=C(CSc1nc(-c2cccs2)cc(C(F)(F)F)n1)NCc1ccccc1,-1,16,-11,i,-3,-5,-11,-3,
Cc1ccc([N+](=O)[O-])cc1S(=O)(=O)NCCc1c(C)[nH]c2ccccc12,-5,?,-11,i,-8,-3,-2,-25,
COc1ccccc1N1CCN(Cc2c[nH]c3ccccc23)CC1,5,16,2,i,-2,-8,0,-2,
Cc1ccc(NC(=O)c2cc(S(=O)(=O)N3CCCCC3)ccc2N2CCOCC2)cc1S(=O)(=O)N(C)C,/,-3,/,/,/,-3,0,-2,
COc1ccc(S(=O)(=O)N(C)C[C@H]2Oc3c(NC(=O)Nc4c(C)noc4C)cccc3C(=O)N([C@@H](C)CO)C[C@H]2C)cc1,/,-9[16.7 µM],/,/,/,2,3,-6,
Cc1ccccc1C(=O)NNC(=S)NC(=O)c1ccccc1,-6,/,-2,i,8,6,3,/,
COc1ccccc1C(=O)NCc1nnc(SCC(=O)Nc2nccs2)n1C,-15,-29,-9,i,-12,-3,1,-18,
Cc1ccc(S(=O)(=O)c2c(O)c3ccc(C(=O)O)cc3[nH]c2=O)cc1,3,-9,-5,i,-17,5,4,-12,
Cc1[nH]n(-c2ccccc2)c(=O)c1C(=O)c1ccc([N+](=O)[O-])cc1,11,19,16,i,2,5,5,/,
COCCn1c(SCC(=O)Nc2cccc(F)c2)nc2c(c1=O)SCC2,1,-17,-4,i,-18,0,0,0,
CC(C)c1ccccc1NC(=O)CCc1nc2ccccc2s1,7,-9,-10,i,2,-4,5,-15,
COC(=O)c1cccc(C23CC4(C2)[C@H](CN(C)[C@@H]4c2ccccc2)C3c2ccc(C(F)(F)F)cc2)c1 (stereo partly drawn),21,-13,20,i,0,0,-3,4,
Cc1cc(/C=N/Nc2ccc([N+](=O)[O-])cn2)c(C)n1-c1ccc(C(=O)O)cc1,11,16,-3,i,76,-20,0,/,eIF4H inh retest=10;PABP polyA inh retest=6
Cc1ccc(C(=O)CSc2nnc(-c3ccccc3)n2-c2ccccc2)o1,43,16,8,i,4,-2,-1,/,
CC1CCN(S(=O)(=O)c2cccc(S(=O)(=O)N3CCCC3)c2)CC1,/,-52,9,i,-8,1,-1,-8,
Cc1ccccc1N=C1SCCN1C(=O)CN1C(=O)NC2(CCCC2)C1=O,5,-43,/,i,/,3,2,16,
Cc1ccccc1Cn1c(C)c(C(=O)NCC(C)C)sc1=O,/,11,/,/,/,-1,-1,-3,
C/C(=N\N=C1\NC(=O)C(CC(=O)Nc2ccc(Cl)cc2)S1)c1ccco1 (stereo not drawn),3,-18,56*,i,50,3,0,1,
CN(C)CCCNC(=O)C[C@H]1C[C@H](C(=O)N2CCOCC2)[C@@]2(C)c3[nH]c4cc(CCC(=O)N(C)C)ccc4c3CCN2C1=O,/,-2,/,/,/,0,3,-8,
O=[N+]([O-])c1ccc(N2CCN(c3ccc([N+](=O)[O-])cc3CO)CC2)c(CO)c1,9,44,5,i,-3,-12,-30,-17,
O=C(O)c1ccc(-c2ccccc2Cl)o1,-5,/,/,/,/,-1,6,-20,
COC(=O)c1cccc(C#CC(NP(=O)(c2ccccc2)c2ccccc2)c2ccccc2)c1 (stereo not drawn),34,-6,-2,i,-1,-2,-1,-11,
CC(CNc1nc2ccccc2n2cnnc12)c1ccccc1 (stereo not drawn),-17,-8,-2,i,-10,-4,-3,-21,
Cc1cc(C(C)(C)C)oc1C(=O)N(CC(=O)NC1CCCC1)c1ccc(F)cc1,0,/,-1,i,4,-19,-16,-8,

# Bioassay records deposited in PubChem by several laboratories.

# These rows are one share of the data (hit frequency here may not be typical).
